High-throughput results: PubChem, National Center for Advancing Translational Sciences (NCATS)
VDR inh: inhibitors of human vitamin D receptor; AID 504847; VDR-SRC2-3 peptide fluorescence polarization, 2 h; Potency, µM, without a hit: max response, negative = inhibition, actives largely listed as inhibitors; actives 0.93% (n = 400,000); active = well fitted inhibition curve with a large enough effect; inconclusive = small, poorly fitted or top-dose-only effect, or another doubt; inactive = no such curve, though single readings can be large or run the other way; note: series mostly up to about 120 µM
Target sequence (P11473 whole entry, looked up): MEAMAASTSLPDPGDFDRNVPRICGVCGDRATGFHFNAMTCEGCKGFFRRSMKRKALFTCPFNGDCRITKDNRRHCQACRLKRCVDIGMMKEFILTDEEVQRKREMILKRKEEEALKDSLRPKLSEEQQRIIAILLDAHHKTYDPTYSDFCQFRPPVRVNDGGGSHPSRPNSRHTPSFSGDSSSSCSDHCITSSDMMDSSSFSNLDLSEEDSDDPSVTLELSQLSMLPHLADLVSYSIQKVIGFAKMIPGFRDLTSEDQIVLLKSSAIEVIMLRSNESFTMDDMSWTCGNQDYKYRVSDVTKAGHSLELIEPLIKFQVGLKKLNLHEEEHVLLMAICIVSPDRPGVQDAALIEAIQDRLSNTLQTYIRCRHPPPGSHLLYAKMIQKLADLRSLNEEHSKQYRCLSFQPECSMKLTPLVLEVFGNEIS
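After 23 nl compound addition and a short centrifugation, plates sat for 2 hours at ambient temperature; polarization of fluorescence then indicated loss of VDR binding to peptide SRC2-3.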
The depositor's hits bear a star; ? = inconclusive; & = joins results of further samples; [ ] = dose if it differs, or a comment. % is set by controls: 0 for no effect and ±100 for the full control effect; potency is the fitted concentration of half-maximal effect. An excerpt (hit frequency here may not be typical).

SMILES	VDR inh
CCOC(=O)N/N=C/c1cn(Cc2ccccc2Cl)c2ccccc12	-12%
c1ccc(C2=NNC(c3ccccn3)=NN2)nc1	7%
CCOC(=O)c1cnn(-c2ccc(OC)cc2)c1C1CCN(C(=O)OC(C)(C)C)CC1	-8%
Cc1ccc(CCNC(=O)Cc2ccc(NC3=NC4CS(=O)(=O)CC4S3)cc2)cc1 (stereo not given)	3%
O=C(CN(Cc1ccc(Cl)cc1)C(=O)CNS(=O)(=O)c1ccc(F)cc1)NCC1CCCO1 (stereo not given)	7%
CCOc1cc(CNCCSc2nnnn2-c2ccccc2)cc(Cl)c1OC	18%
Cc1nn(-c2ccccc2)c2nc(-c3ccccc3)cc(C(=O)N3CCOCC3)c12	-6%
CC(=O)N1CCN(C(=O)COC(=O)c2ccc(S(C)(=O)=O)cc2)CC1	7%
Cc1cc(C(=O)N2CCOCC2)ccc1[N+](=O)[O-]	-8%
Cc1c(NC(=O)c2cccc(S(=O)(=O)N(C)c3ccccc3)c2)c(=O)n(-c2ccccc2)n1C	-7%
O=C1CN(C(=O)OCc2ccccc2)c2ccccc2N1	10%
CCOc1ccccc1CNC(=O)CCCN1C(=O)c2cccnc2Oc2ccc(Cl)cc21	9%
COC(=O)CNC(=O)COc1ccccc1	-3%
Cc1ccc(-c2cc(C(=O)N3CCN(C(=O)c4ccco4)CC3)[nH]n2)cc1C	-5%
COc1cc(C(=S)N2CCCCC2)ccc1OCC(=O)Nc1ccc(F)cc1	-9%
O=C(c1cccc([N+](=O)[O-])c1)N1CCN(Cc2ccc3c(c2)OCO3)CC1	-18%
C/C=C/C(=O)OCc1csc(CC(=O)Nc2ccccc2C)n1	-7%
O=C(NCC(c1cccnc1)N1CCc2ccccc21)c1ccc(F)c(F)c1 (stereo not given)	6%
COc1ccc(/C=C(\C#N)C(=O)OCC(=O)NCc2ccco2)cc1	7%
COc1cc(C2CC(=O)c3cnc(N4CCN(CCO)CC4)nc3C2)cc(OC)c1OC (stereo not given)	20%
Cc1cccc(CCNC(=O)CC2C(=O)NCCN2Cc2ccccc2C)n1 (stereo not given)	-11%
CCN(CC)C(=O)CSc1ccccc1N	9%
Cc1cccc(N(CC(=O)NCc2ccco2)C(=O)CCC(=O)Nc2ccccn2)c1	-4%
CCCCCCCCCCSc1n[nH]c(N)n1	-8%
CCOc1ccc(OCC(=O)Nc2ccc(S(=O)(=O)Nc3cc(C)nc(C)n3)cc2)cc1	-2%
Cc1cc2c(c(=O)n1CCN(C)C)C(c1ccc(Cl)cc1)C(C#N)=C(N)O2 (stereo not given)	4%
CCOc1ccc(-c2nc(Cn3c(=O)cc(-c4ccccc4)c4c(C)nn(C)c43)c(C)o2)cc1OC	7%
O=C(NCc1ccccn1)NC1CCCCC1	7%
CCc1ccc(NC(=O)Cc2cn(C)c3ccccc23)cc1	1%
Cc1cccc(C(=O)OCC(=O)c2c(C)[nH]c3ccccc23)c1O	10%
Oc1cccc(CN2CCOCC2)c1O	?
COc1ccc(C(=O)N2c3ccc(F)cc3CCC2C)cc1OC (stereo not given)	-7%
CCN(CC)c1ccc(NC(=O)CCS(=O)(=O)c2cc3c(cc2Cl)NC(=O)CO3)c(C)c1	3%
S=C(NCCCN1CCOCC1)N1CCN(c2nc(-c3ccc(Cl)cc3)cs2)CC1	-10%
O=C(NNS(=O)(=O)c1ccc(Cl)cc1)C1CCN(Cc2ccccc2)CC1	-12%
COc1ccc(O)c(CN2CCCC(C(=O)Nc3cccc(-n4cccn4)c3)C2)c1 (stereo not given)	8%
FC(F)(F)c1nnc(-c2ccccc2)nc1Oc1ccccc1	13%
N/C(=N\OC(=O)COc1ccccc1)c1ccccn1	-1%
COc1ccc(-c2[nH]nc3oc(=O)cc(C)c23)cc1	14%
Cc1ccsc1/C=C(\C#N)C(=O)Nc1c(C)n(C)n(-c2ccccc2)c1=O	11%
CCOC(=O)NCc1ccc2c(c1)OCO2	10%
Cn1c(=O)c2c(n(Cc3ccccc3)c1=O)NC(=O)C2CC(=O)N1CCc2ccccc2C1 (stereo not given)	-4%
Cc1ccccc1NC(=S)N(CCCN1CCC(C)CC1)Cc1ccco1	-6%
CCCCn1c(SCc2ccccn2)nc2c1c(=O)n(C)c(=O)n2C	-15%
COc1cccc([C@@H]2Oc3ccc(OC)cc3C[C@H]2OC(=O)N[C@H]2CCCc3ccccc32)c1	0%
Cc1c(NC(=O)c2ccc(N3CCCC3)c([N+](=O)[O-])c2)cccc1-c1nc2ccccc2s1	4%
Cc1ccccc1NC(=O)c1c(NC(=O)c2ccccc2F)sc2c1CCC(C)C2 (stereo not given)	-12%
COCCNc1c(-c2ccc(OC)cc2)nc2ccc(Cl)cn12	15%
COc1ccccc1NCCC(=O)OCC(=O)NCc1ccco1	9%
CCOc1ccccc1NC(=O)CSc1c(C)n[nH]c1C	-6%
CN1/C(=C\C(=O)c2cccs2)C(C)(C)c2ccccc21	-11%
Cc1ccc(S(=O)(=O)N2CCN(C3CC(=O)N(CCc4ccccc4)C3=O)CC2)cc1C (stereo not given)	20%
COc1cccc(COc2ncnc3sccc23)c1	-3%
O=C(CSc1cccc[n+]1[O-])Nc1cc2c(cc1Cl)C(=O)c1ccccc1C2=O	-20%
CC(C)N(C(=O)CSc1ccc(S(=O)(=O)N2CCCCC2)cn1)c1ccccc1	1%
OCCNc1nc(Nc2ccc(Cl)c(Cl)c2)nc2ccccc12	31%
CCCSc1ncc(Cl)c(C(=O)Nc2c(C(=O)c3ccc(C)cc3)oc3ccccc23)n1	8%
CCOc1ccc(/C=N/n2c(C)nnc2C)cc1OC	-13%
CC1(C)CC(=O)C2=C(C1)N(c1ccccc1)C(N)=C(C#N)C2c1ccccc1 (stereo not given)	-12%
CCOC(=O)N1C2CCC(C2)N1C(=O)OCC	-18%

Going on with the list.
SMILES	VDR inh
O=C(/C=C/Sc1ccc(C(F)(F)F)cn1)c1ccccc1	79µM*
CCCc1nn(CCc2ccccn2)c(N)c1CC	-11%
CN1C(=O)C2(C(C#N)=C(N)N(c3ccc(Cl)cc3)C3=C2C(=O)CC(C)(C)C3)c2ccccc21 (stereo not given)	7%
CC(=O)c1cccc(NS(=O)(=O)c2c(C)n[nH]c2C)c1	19%
COCCN(C(=O)CC(C)(C)C)c1nnc(-c2cccnc2)s1	1%
O=C(O)CSCc1ccc(Cl)cc1	8%
COC(=O)c1ccc(C2SCC(=O)N2Cc2ccccc2)cc1 (stereo not given)	-18%
CC(C)c1onc(C(=O)N2CCOCC2)c1[N+](=O)[O-]	-4%
C#CCNC(=O)C1=C[C@@H](c2ccc(Br)cc2)[C@H](CCCO)[C@@H](OCC)O1	7%
O=C(Nc1ccccc1OC(F)F)c1ccccc1	5%
COc1ccc2c(c1)c(C(O)CN1CCC(Cc3ccccc3)CC1)c(C)n2C (stereo not given)	16%
O=C(Nc1ccc(S(=O)(=O)Nc2ncccn2)cc1)c1cccc(S(=O)(=O)N2CCCC2)c1	-10%
COc1cccc(CN2CC(C(=O)N3CCCCCC3)CCC2=O)c1 (stereo not given)	-11%
O=C(Nc1ccccn1)c1cc2ccccc2o1	4%
COC(=O)CCC(=O)OC1(C)C(=O)C=C2C=C(C3CC3)N(c3cccc(C#N)c3)C=C2C1=O (stereo not given)	0%
COc1ccc(NC(=O)NCCN2CCN(c3cccc(Cl)c3)CC2)cc1	-7%
Cc1cc(NCc2ccc(F)cc2)nc2cc(Cl)ccc12	-10%
O=C(O)C1CCCN1S(=O)(=O)c1cccc(S(=O)(=O)N2CCCC2C(=O)O)c1 (stereo not given)	-2%
Cc1cc(C)n(-c2nc(NC(C)C)nc(NC(C)(C)C)n2)n1	-9%
COC(=O)[C@H](CC(C)C)NS(=O)(=O)N(Cc1ccccc1)[C@@H](CC(C)C)C(=O)OC	3%

A different layout for some results above.
structure,VDR inh
CCOC(=O)N1C2CCC(C2)N1C(=O)OCC,-18%
O=C(/C=C/Sc1ccc(C(F)(F)F)cn1)c1ccccc1,79µM*
CCCc1nn(CCc2ccccn2)c(N)c1CC,-11%
CN1C(=O)C2(C(C#N)=C(N)N(c3ccc(Cl)cc3)C3=C2C(=O)CC(C)(C)C3)c2ccccc21 (stereo not given),7%
CC(=O)c1cccc(NS(=O)(=O)c2c(C)n[nH]c2C)c1,19%
COCCN(C(=O)CC(C)(C)C)c1nnc(-c2cccnc2)s1,1%
O=C(O)CSCc1ccc(Cl)cc1,8%
COC(=O)c1ccc(C2SCC(=O)N2Cc2ccccc2)cc1 (stereo not given),-18%
CC(C)c1onc(C(=O)N2CCOCC2)c1[N+](=O)[O-],-4%
C#CCNC(=O)C1=C[C@@H](c2ccc(Br)cc2)[C@H](CCCO)[C@@H](OCC)O1,7%
O=C(Nc1ccccc1OC(F)F)c1ccccc1,5%
COc1ccc2c(c1)c(C(O)CN1CCC(Cc3ccccc3)CC1)c(C)n2C (stereo not given),16%
O=C(Nc1ccc(S(=O)(=O)Nc2ncccn2)cc1)c1cccc(S(=O)(=O)N2CCCC2)c1,-10%
COc1cccc(CN2CC(C(=O)N3CCCCCC3)CCC2=O)c1 (stereo not given),-11%
O=C(Nc1ccccn1)c1cc2ccccc2o1,4%
COC(=O)CCC(=O)OC1(C)C(=O)C=C2C=C(C3CC3)N(c3cccc(C#N)c3)C=C2C1=O (stereo not given),0%
COc1ccc(NC(=O)NCCN2CCN(c3cccc(Cl)c3)CC2)cc1,-7%
Cc1cc(NCc2ccc(F)cc2)nc2cc(Cl)ccc12,-10%
O=C(O)C1CCCN1S(=O)(=O)c1cccc(S(=O)(=O)N2CCCC2C(=O)O)c1 (stereo not given),-2%
Cc1cc(C)n(-c2nc(NC(C)C)nc(NC(C)(C)C)n2)n1,-9%

(continued)
SMILES	VDR inh
CCOc1ccc(-c2cnc3n2CCCCC3)cc1	-12%
Cc1ccc(OCC(=O)N2CC(C)CC(C)C2)c([N+](=O)[O-])n1 (stereo not given)	-11%
CC(C)CC1NC(=O)N(CC(=O)Nc2ccc(OC(F)F)cc2)C1=O (stereo not given)	1%
CC1(C)c2ccccc2-c2nc3ccccc3cc2C1N1CCOCC1 (stereo not given)	2%
C/C(=C\c1ccccc1)CN1CCC(C(=O)N2CCCCC2)CC1	5%
Cc1nc(N)c(Cc2ccc(Cl)cc2Cl)c(N)n1	-1%
N#CC[C@H](Cc1ccccc1)N1CC[C@@H](O)CCC1=O	8%
O=C(COc1ncnc2ccccc12)NC1CCCCC1	-10%
Cc1cc(C)c2c(N)c(C(=O)c3ccc(Cl)c(Cl)c3)sc2n1	-4%
C=CCOn1c(=O)c(-c2cccs2)[n+]([O-])c2ccccc21	-11%
O=C(O)c1ccc(-c2nc(-c3ccc(Cl)cc3)cs2)cc1	42%[activator]
O=C(CN(CC1CCCO1)C(=O)CNS(=O)(=O)c1ccc(F)cc1)NCc1ccc(F)cc1 (stereo not given)	2%
C=CCN=C1SCC(=O)N1S(=O)(=O)c1ccc(C)cc1	2%
CCn1c(C2CCN(S(=O)(=O)c3ccc(OC)cc3)CC2)n[nH]c1=S	-7%
NS(=O)(=O)c1ccc(NC(=O)COC(=O)c2c3c(nc4ccccc24)/C(=C\c2ccc4c(c2)OCO4)CCC3)cc1	-15%
COCCCN1C(=O)C(=O)/C(=C(/O)c2ccc(S(=O)(=O)N3CCCCC3)cc2)C1c1cccc(OC)c1 (stereo not given)	-7%
CC(=O)c1cc(F)ccc1OCC(=O)N1CCCc2ccccc21	-4%
Cn1c(=O)c2c(nc(Oc3ccc(C#N)cc3)n2Cc2ccc(Cl)cc2Cl)n(C)c1=O	-15%
COc1ccc(CCNC(=O)c2cc(C)nc3c2c(C)nn3-c2ccc(C)cc2)cc1OC	15%
Cc1cc(C)cc(OCC(=O)OCC(=O)Nc2cc(S(=O)(=O)N3CCOCC3)ccc2Cl)c1	-27%
Cc1ccc(C(=O)COC(=O)CCN2C(=O)C3C4C=CC(C5CC45)C3C2=O)cc1 (stereo not given)	-5%
Cc1cc(C(=O)Nc2ccc3c(c2)CCC3)c2ccccc2n1	18%
Cc1ccc(C(=O)NCCc2ccc(S(=O)(=O)N3CCCC3)cc2)cc1	19%
C=C(C)CNC(=S)Nc1cccc2cnccc12	-7%
Cc1cccc(C)c1OCCn1nnc2ccccc21	-5%
CC(=O)NCCn1c(SCc2ccc(C)cc2)nc2ccccc2c1=O	-1%
O=C(c1ccncc1)N1CCc2ccccc2C1	-7%
COc1ccc(-c2ccnc(-c3ccc(OCCCF)cc3)n2)cc1	0%
O=C(c1ccc(F)c(S(=O)(=O)N2CCOCC2)c1)N1CCc2ccccc21	7%
CS(=O)(=O)c1ccc(Cl)c(NC(=O)CCCc2nc3ccccc3c(=O)[nH]2)c1	-7%
CCCCNC(=O)Oc1cccc(N2CCCC2=O)c1	7%
C=CCNC(=O)COc1cc(C)ccc1C	-11%
CCOc1ccccc1NC(=O)C1CCCN(S(=O)(=O)c2c(C)[nH]c(=O)[nH]c2=O)C1 (stereo not given)	5%&0%
COc1ccc(NC2CCCN(C(=O)CCn3cccn3)C2)cc1 (stereo not given)	-8%
Cc1cc(C)n(-c2ccc(C(=O)Nc3cccc([N+](=O)[O-])c3)cc2)n1	-8%
COc1cccc(C(=O)Nc2ccc(C3CC3(Cl)Cl)cc2)c1 (stereo not given)	-16%
COc1ccc(-c2nc3ncccc3n2O)cc1	-6%
COc1ccc2c(C)c(CCC(=O)NCCc3ccccc3)c(=O)oc2c1	9%
Cc1ccc(-c2nn(-c3ccccc3)cc2C(=O)N2CCOCC2)cc1	10%
CCn1cc(C(=O)O)c(=O)c2cnc(N3CCN(C(=S)NC(=O)c4ccc(Cl)cc4Cl)CC3)nc21	3%
O=C(CSc1nnc(Cc2cc(=O)[nH]c(=O)[nH]2)n1-c1ccc(Cl)cc1)NC1CCCC1	-4%
CCCCSc1nc(C)cc(NC(=S)Nc2ccc(OC)cc2)n1	-11%
Nn1c(Cc2ccccc2F)n[nH]c1=S	-4%
COc1ccc(Nc2oc(/C=C/c3ccccc3OC)nc2C#N)cc1	4%
CCCCN1C2CCCC1CC(NC(=O)C1CCCCC1)C2 (stereo not given)	-7%
